MITF inhib: blocks MITF activity; TRPM1 promoter luciferase, luminescence, 24 h; inhibition, % (no concentration beside the values); 37,000 tested, 0.28% active; AID 2240;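 active = most replicates at 85% or more, or half of them and the mean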;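 also: human melanocyte line stably carrying TRPM1 promoter luciferase reporter; 0% = vehicle wells and 100% = a positive control; the first replicate is given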
Hedgehog inh: Sonic Hedgehog pathway inhibition. 22,000 tested, 2.1% active. Shh-LIGHT2 Gli-luciferase reporter, 30 h. inhibition, % (no concentration beside the values);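 active = replicate mean of 65% or more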;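 also: pathway switched on by Shh-conditioned medium diluted 1 in 25 in low serum; 100 nL library stock added to about 40 µL; 0% = median of neutral wells and 100% = positive control level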
PD-1 reverse act: activators reversing PD-1 mediated T-cell inhibition; primary human CD4 T cells, PD-L1 beads, CellTiter-Glo 96 h; activation, % (concentration not given with the values); 29,000 tested, under 10 active;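 active = replicate mean of 50% or more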;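 also: 0% = median vehicle wells and 100% = positive control; 100 nL library stock added to about 50 µL; numbers are from one replicate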
YB-1 expression: YB-1 expression inhibition. delta delta Cp (YB-1 minus CDIP) (no concentration beside the values). 30,000 tested, 0.37% active. U2OS, qRT-PCR YB-1 vs CDIP delta delta Cp, 16 h; active compounds read high; zero = DMSO, each unit about twofold;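 active = delta delta Cp rounded down to an integer at or above 3, about 3 SD of DMSO wells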;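 also: higher means less YB-1 transcript or more CDIP transcript relative to DMSO; stock transfer was 100 nL into about 100 µL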
* = called active by the depositor; x = not tested or not shown.

No.	Structure	Hedgehog inh	MITF inhib	PD-1 reverse act	YB-1 expression
1	C[C@H](CO)N1C[C@H](C)[C@H](CN(C)S(=O)(=O)c2ccc(Cl)cc2)Oc2ccc(NC(=O)Nc3ccc(F)cc3)cc2CC1=O	-8.2	21.5	-0.5	0.323
2	Cc1ccc(S(=O)(=O)N(C)C[C@@H]2OCCCC[C@@H](C)Oc3ccc(NC(=O)NC4CCCCC4)cc3C(=O)N([C@H](C)CO)C[C@@H]2C)cc1	-16.7	10.5	-3.2	0.0507
3	COc1ccc(CN(C)C[C@@H]2Oc3ccc(NC(=O)Nc4ccccc4)cc3C(=O)N([C@H](C)CO)C[C@@H]2C)cc1	23.9	-1.3	1.5	0.237
4	C[C@H](CO)N1C[C@H](C)[C@H](CN(C)C(=O)Nc2ccc(C(F)(F)F)cc2)Oc2ccc(N(C)C)cc2C1=O	-10.6	-7.5	0.7	-0.102
5	C[C@H](CO)N1C[C@H](C)[C@@H](CN(C)S(=O)(=O)c2ccccc2)Oc2c(NC(=O)C3CC3)cccc2C1=O	39.8	0.1	x	-0.113
6	CN(CC(=O)Nc1ccccc1Br)S(=O)(=O)c1ccc2ccccc2c1	x	8.7	2.2	x
7	C[C@@H]1CN([C@@H](C)CO)C(=O)c2cc(NC(=O)C3CC3)ccc2O[C@H]1CN(C)S(=O)(=O)c1ccc(Cl)cc1	66.8*	-10.9	-1.6	-0.275
8	C[C@H](CO)N1C[C@H](C)[C@@H](CN(C)C(=O)Nc2ccc3c(c2)OCO3)Oc2ccc(NC(=O)c3ccncc3)cc2C1=O	-5.0	-4.9	1.2	-0.177
9	COc1ccc(CN(C)C[C@H]2Oc3ccc(NS(C)(=O)=O)cc3C(=O)N([C@H](C)CO)C[C@@H]2C)cc1	13.2	6.0	0.7	0.164
10	C[C@@H]1CN([C@H](C)CO)C(=O)c2cc(NC(=O)CCC(F)(F)F)ccc2O[C@H]1CN(C)C(=O)NC1CCCCC1	x	0.7	1.0	0.0753
11	Cc1ccc(S(=O)(=O)N(C)C[C@@H]2Oc3ccc(NC(=O)Nc4ccc5c(c4)OCO5)cc3C(=O)N([C@@H](C)CO)C[C@H]2C)cc1	x	-27.8	-0.1	0.132
12	C[C@@H]1CN([C@@H](C)CO)C(=O)c2cc(NC(=O)C3CC3)ccc2O[C@H]1CN(C)Cc1ccncc1	x	-2.0	0.0	-0.0346
13	CC1(C)C=Cc2c(c(CCO)c3occ(-c4ccc(O)c(O)c4)c(=O)c3c2O)O1	27.7	-31.7	-0.4	0.0873
14	C[C@@H]1CN([C@H](C)CO)C(=O)Cc2cc(NS(=O)(=O)c3ccc(Cl)cc3)ccc2O[C@@H]1CN(C)C(=O)Nc1cccc2ccccc12	-9.0	-6.0	2.1	0.105
15	COc1ccc(CN(C)C[C@H]2Oc3ccc(NS(=O)(=O)c4ccc(OC)cc4)cc3C(=O)N([C@H](C)CO)C[C@@H]2C)cc1	6.3	-2.1	x	-0.00579
16	Cc1ccccc1NC(=O)CCCC(=O)O	x	-21.5	1.6	x
17	CC(=O)N1C(=S)NC(=O)C1c1ccccc1 (stereo unspecified)	43.8	12.9	-7.7	-0.0295
18	CC(=O)OCC(=O)[C@@]1(O)CCC2C3C[C@H](C)C4=CC(=O)C=CC4(C)C3[C@@H](O)CC21C (stereo partly specified)	40.6	-13.7	-3.8	-0.118
19	Cc1noc(C)c1NC(=O)N(C)C[C@@H]1Oc2ccc(NC(=O)C3CCCCC3)cc2CC(=O)N([C@H](C)CO)C[C@H]1C	-6.4	0.0	0.2	-0.548
20	COc1ccc(NC(=O)N(C)C[C@H]2Oc3ccc(NS(=O)(=O)c4ccc(OC)cc4)cc3C(=O)N([C@@H](C)CO)C[C@@H]2C)cc1	-31.8	-13.0	1.3	-0.338
21	C[C@@H]1CN([C@H](C)CO)C(=O)c2cc(NC(=O)Nc3ccccc3)ccc2O[C@@H]1CN(C)C(=O)Nc1ccc2c(c1)OCO2	-50.9	-8.2	x	0.0739
22	C[C@@H]1CN([C@@H](C)CO)C(=O)Cc2cc(NC(=O)Nc3ccccc3)ccc2O[C@@H]1CN(C)Cc1ccc2c(c1)OCO2	-6.5	13.5	1.0	0.0794
23	Cc1ccc(-n2nnnc2SCC(=O)Nc2ccc3c(c2)COC3=O)cc1C	x	-18.4	-0.1	x
24	CC1CC(=O)C2=C(CCC34OC23C(=O)c2cccc(O)c2C4O)C1 (stereo unspecified)	-2.9	14.8	-1.8	-0.41
25	Cc1noc(C)c1NC(=O)Nc1ccc2c(c1)C(=O)N([C@@H](C)CO)C[C@@H](C)[C@H](CN(C)Cc1ccc3c(c1)OCO3)O2	-22.3	7.8	2.8	0.402
26	O=C(CSc1ncnc2sc3c(c12)CCC3)NCC1CCCO1 (stereo unspecified)	x	-46.7	0.5	x
27	COc1ccc(NC(=O)Nc2cccc3c2O[C@@H](CN(C)CC2CCCCC2)[C@@H](C)CN([C@@H](C)CO)C3=O)cc1	-1.1	-9.7	x	0.82
28	Cc1noc(C)c1NC(=O)Nc1ccc2c(c1)C(=O)N([C@@H](C)CO)C[C@@H](C)[C@H](CN(C)S(C)(=O)=O)O2	15.2	-3.1	0.0	-0.0959
29	COc1ccc(NC(=O)CCC(=O)c2ccc(-c3ccccc3)cc2)cc1	x	-32.6	1.8	x
30	CC(=O)OCC1=CCCC2[C@@]1(C)CC[C@@H](C)[C@]2(C)CCC(C)CC(=O)O (stereo partly specified)	13.1	11.7	0.9	0.353
31	C[C@@H]1CCCCO[C@H](CN(C)Cc2ccc(C(=O)O)cc2)[C@@H](C)CN([C@H](C)CO)C(=O)c2cc(NC(=O)Nc3ccc(F)cc3)ccc2O1	x	-4.9	1.1	0.387
32	Cc1noc(C)c1NC(=O)Nc1ccc2c(c1)C(=O)N([C@@H](C)CO)C[C@H](C)[C@@H](CN(C)S(=O)(=O)c1cn(C)cn1)O2	-24.3	-7.3	1.9	-0.12
33	CC1=NN(C(=O)Cc2ccccc2)C(O)(c2ccccc2)C1 (stereo unspecified)	x	-22.2	-2.5	-1.03
34	CC(C)NC(=O)N(C)C[C@@H]1Oc2c(NC(=O)NC3CCCCC3)cccc2C(=O)N([C@@H](C)CO)C[C@@H]1C	2.4	-1.9	0.8	-0.166
35	COc1ccc2c(c1)OC(C(=O)c1ccccc1)C2=O (stereo unspecified)	22.8	5.1	-2.0	-0.243
36	C[C@H](CO)N1C[C@H](C)[C@H](CN(C)Cc2ccc(C(=O)O)cc2)Oc2ccc(NS(=O)(=O)c3ccc(Cl)cc3)cc2C1=O	x	-2.4	3.3	-0.139
37	C[C@H](CO)N1C[C@H](C)[C@@H](CN(C)C(=O)Nc2ccc3c(c2)OCO3)Oc2ccc(NC(=O)Nc3ccccc3)cc2C1=O	7.6	-11.0	0.8	-0.252
38	C[C@H](CO)N1C[C@H](C)[C@H](CN(C)Cc2ccc(Cl)c(Cl)c2)Oc2ccc(NC(=O)C3CC3)cc2C1=O	4.8	4.9	2.1	0.0781
39	CC(C)(C)c1ccccc1OCC(=O)Nc1cccc2ccccc12	20.1	27.4	-0.7	-0.00232
40	C[C@@H]1CN([C@H](C)CO)C(=O)c2cccc(NS(=O)(=O)c3ccc(Cl)cc3)c2O[C@H]1CN(C)C(=O)Nc1ccccc1	-3.1	2.0	1.6	0.0397
41	CC(C)NC(=O)Nc1ccc2c(c1)C(=O)N([C@H](C)CO)C[C@H](C)[C@H](CN(C)S(=O)(=O)c1ccc(Cl)cc1)OCCCC[C@@H](C)O2	1.6	7.3	x	-0.515
42	C[C@@H]1CN([C@H](C)CO)C(=O)Cc2cc(NC(=O)Cn3cnnn3)ccc2O[C@@H]1CN(C)Cc1ccc(C(F)(F)F)cc1	-41.7	0.1	x	0.14
43	CCOC(=O)Cn1c(-c2c(Cl)cccc2Cl)noc1=O	9.9	-16.6	-0.5	-0.322
44	O=C(O)CNC(=O)CSc1ccccn1	0.6	5.3	2.5	-0.0297
45	Cc1ccc(S(=O)(=O)Nc2ccc3c(c2)CC(=O)N([C@@H](C)CO)C[C@@H](C)[C@@H](CN(C)CC2CC2)O3)cc1	-13.5	4.9	x	-0.205
46	COc1ccc(OC)c(S(=O)(=O)N(C)CC(=O)N2CCN(c3ccccc3)CC2)c1	x	5.5	-0.3	x
47	CC(C)CC1C(=O)N2CCC[C@H]2C2(O)O[C@](NC(=O)C3C=C4c5cccc6[nH]c(Br)c(c56)C[C@H]4N(C)C3)(C(C)C)C(=O)N12 (stereo partly specified)	25.7	-2.4	x	0.207
48	Cc1ccc(SCC(=O)Nc2cccc(Oc3ccc4c(c3)C(=O)NC4=O)c2)cc1	x	-12.1	1.8	x
49	O=C(COc1ccc(Cl)cc1)Nc1ncccn1	x	-52.2	1.4	x
50	CNC(=S)NC1CCS(=O)(=O)C1 (stereo unspecified)	-15.9	-1.1	-0.1	0.154
51	Cc1noc(C)c1S(=O)(=O)N(C)C[C@@H]1Oc2ccc(NC(=O)C3CC3)cc2CC(=O)N([C@H](C)CO)C[C@@H]1C	69.7*	-11.1	x	-0.169
52	C[C@@H]1CN([C@H](C)CO)C(=O)c2cc(NC(=O)c3ccncc3)ccc2O[C@@H]1CN(C)C(=O)NC1CCCCC1	x	4.0	1.1	-0.0837
53	COc1ccccc1NC(=O)CSc1nnc(-c2cccc3ccccc23)n1-c1ccccc1	x	43.8	0.2	x
54	CC(C)(C)NC(=O)CN(c1ccc2c3c(cccc13)CC2)S(C)(=O)=O	x	-9.3	2.2	x
55	C[C@H](CO)N1C[C@H](C)[C@H](CN(C)C)Oc2c(NC(=O)c3ccc(-c4nccs4)cc3)cccc2C1=O	35.7	6.4	2.1	-0.224
56	O=C(O)CCC(=O)N=S(c1ccccc1)c1ccccc1	-12.3	8.1	0.5	0.569
57	C[C@H](CO)N1C[C@H](C)[C@H](CN(C)C(=O)Nc2ccc3c(c2)OCO3)Oc2ccc(NC(=O)Nc3cccc4ccccc34)cc2C1=O	37.1	-6.3	-2.5	0.103
58	COc1ccc(S(=O)(=O)Nc2cccc3c2O[C@@H](CN(C)CC2CC2)[C@H](C)CN([C@@H](C)CO)C3=O)cc1	5.7	-13.2	0.4	0.747
59	O=C(O)CSc1nc2ccccc2o1	-23.4	-15.5	1.1	0.444
60	CCOC(=O)c1cnc(Nc2nc3ccccc3o2)nc1CSc1nnc(C)s1	x	-7.4	-9.3	x

Filtered by structure: the entries above containing a tert-butyl group.
No.	Structure	Hedgehog inh	MITF inhib	PD-1 reverse act	YB-1 expression
39	CC(C)(C)c1ccccc1OCC(=O)Nc1cccc2ccccc12	20.1	27.4	-0.7	-0.00232
54	CC(C)(C)NC(=O)CN(c1ccc2c3c(cccc13)CC2)S(C)(=O)=O	x	-9.3	2.2	x

Continued.
No.	Structure	Hedgehog inh	MITF inhib	PD-1 reverse act	YB-1 expression
61	Cc1cc(C)nc(SCCC(=O)N2CCOCC2)n1	x	-38.7	0.2	x
62	CCN1C(N)=C(C#N)C2(CCNCC2)c2nc(C)oc21	-1.5	-26.9	0.2	-0.431
63	CCn1c(SCC(=O)c2cccc([N+](=O)[O-])c2)nnc1-c1ccc(Cl)cc1	x	-3.7	-0.4	x
64	CC(C)NC(=O)Nc1ccc2c(c1)C(=O)N([C@H](C)CO)C[C@H](C)[C@H](CN(C)C(=O)NC(C)C)O2	x	-6.1	8.1	0.273
65	N=C1S/C(=C/c2ccco2)C(=O)N1c1nccs1	53.4	-17.8	-7.3	-0.398
66	COc1ccc(S(=O)(=O)N(C)C[C@H]2Oc3c(NC(=O)c4cnccn4)cccc3C(=O)N([C@H](C)CO)C[C@H]2C)cc1	10.2	-10.4	1.0	-0.69
67	CCC(C)c1ccc(NC(=O)c2ccc(N(CC)CC)cc2)cc1 (stereo unspecified)	-18.4	-5.8	1.1	0.172
68	C[C@@H]1CN([C@H](C)CO)C(=O)c2cccc(NC(=O)C3CC3)c2O[C@@H]1CN(C)Cc1ccccc1	22.7	-3.7	1.5	-0.00267

Some of these compounds in order of formula weight, smallest number first.
No.	Structure	Hedgehog inh	MITF inhib	PD-1 reverse act	YB-1 expression
65	N=C1S/C(=C/c2ccco2)C(=O)N1c1nccs1	53.4	-17.8	-7.3	-0.398
61	Cc1cc(C)nc(SCCC(=O)N2CCOCC2)n1	x	-38.7	0.2	x
66	COc1ccc(S(=O)(=O)N(C)C[C@H]2Oc3c(NC(=O)c4cnccn4)cccc3C(=O)N([C@H](C)CO)C[C@H]2C)cc1	10.2	-10.4	1.0	-0.69

This is a subset; the hit share may differ from the screen's.
